Screening data as filed in PubChem BioAssay.
ID4 SMM: ID4 (human) binding; P47928; small molecule microarray, Flag-ID4 binding, fluorescence F/B; calls only; 1.2% of 31,000 active;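 active means spot signal over background at p below 0.07 in all four prints; compounds were printed on slides so no solution concentration is given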;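 further: a binder raises fluorescence above local background on the spot; about 2 pmol printed per array spot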
Target sequence (P47928 whole entry, looked up): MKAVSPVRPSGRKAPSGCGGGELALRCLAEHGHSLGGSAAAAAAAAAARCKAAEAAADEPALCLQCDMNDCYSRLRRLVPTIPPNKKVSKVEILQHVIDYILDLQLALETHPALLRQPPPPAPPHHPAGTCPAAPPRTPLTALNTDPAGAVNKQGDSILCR
p53 mut binder: binders of human mutant p53; calls only; small molecule microarray binding, anti-GST fluorescence; 0.4% of 17,000 active;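 active means compounds whose four printed spots each glow above background more than chance allows, each with a p-value under 7%; compounds were printed on slides so no solution concentration is given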;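 further: about 2 pmol printed per array spot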
STAT3 SMM: STAT3 (human) binding | P40763 | Small molecule microarray, His-STAT3 binding, anti-His fluorescence | calls only | 0.2% of 17,000 active;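 active means compounds whose four printed spots each show fluorescence over background unusually high for their array block, chance value under 7%; compounds were printed on slides so no solution concentration is given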;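 further: about 2 pmol printed per array spot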
Myc binder: binders of human c-Myc. small molecule microarray, His-c-Myc binding, anti-His fluorescence. 1.5% of 17,000 active. calls only. P01106;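 active means spot fluorescence over background with P-value below 7% in all four replicate spots, showing protein binding; compounds were printed on slides so no solution concentration is given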;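 further: score is binary with 100 for all four spots passing and 0 otherwise; about 2 pmol printed per array spot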
Target sequence (P01106 whole entry, looked up): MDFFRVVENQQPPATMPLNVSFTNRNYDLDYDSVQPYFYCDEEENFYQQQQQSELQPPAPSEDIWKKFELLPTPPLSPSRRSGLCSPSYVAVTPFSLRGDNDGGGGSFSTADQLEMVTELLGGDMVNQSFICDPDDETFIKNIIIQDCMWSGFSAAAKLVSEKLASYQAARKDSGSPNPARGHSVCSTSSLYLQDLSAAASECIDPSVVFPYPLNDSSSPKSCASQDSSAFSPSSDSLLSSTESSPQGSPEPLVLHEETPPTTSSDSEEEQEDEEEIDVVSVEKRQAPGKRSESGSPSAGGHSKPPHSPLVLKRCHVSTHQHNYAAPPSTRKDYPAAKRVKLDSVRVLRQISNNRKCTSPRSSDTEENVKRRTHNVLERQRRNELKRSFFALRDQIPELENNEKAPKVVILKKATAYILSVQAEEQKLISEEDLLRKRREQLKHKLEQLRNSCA
Calls only; i = inactive; . = no result given. A portion of the library; count on the stated rates, not on these rows.

Preview (3 entries):
item | SMILES | ID4 SMM | p53 mut binder
1 | COc1ccccc1CN(C)C[C@H]1OCc2cn(nn2)CCCC(=O)N([C@H](C)CO)C[C@@H]1C | i | i
2 | CCOC(=O)Cc1nnc(Nc2cccc(C)c2)c2ccccc12 | i | i
3 | COc1ccc(NC(=O)N(C)C[C@H]2Oc3ccc(NC(=O)Nc4cccc5ccccc45)cc3CC(=O)N([C@@H](C)CO)C[C@H]2C)cc1 | . | i

item | STAT3 SMM | Myc binder
1 | i | i
2 | i | i
3 | i | i

The whole of this part, from the first entry:
item | SMILES | ID4 SMM | p53 mut binder
1 | COc1ccccc1CN(C)C[C@H]1OCc2cn(nn2)CCCC(=O)N([C@H](C)CO)C[C@@H]1C | i | i
2 | CCOC(=O)Cc1nnc(Nc2cccc(C)c2)c2ccccc12 | i | i
3 | COc1ccc(NC(=O)N(C)C[C@H]2Oc3ccc(NC(=O)Nc4cccc5ccccc45)cc3CC(=O)N([C@@H](C)CO)C[C@H]2C)cc1 | . | i
4 | COc1ccc(-n2c(SCc3nc4ccccc4s3)nnc2-c2cccnc2)cc1 | i | i
5 | COc1ccc(S(=O)(=O)N(C)C[C@@H]2Oc3ccc(NC(=O)Nc4ccc(C(F)(F)F)cc4)cc3CC(=O)N([C@H](C)CO)C[C@H]2C)cc1 | i | i
6 | COc1ccc(CN(C)C[C@@H]2Oc3ccc(NC(=O)CCN4CCOCC4)cc3C(=O)N([C@@H](C)CO)C[C@@H]2C)cc1 | i | i
7 | COc1cc(S(=O)(=O)Nc2ccncc2)c(OC)cc1Cl | i | i
8 | O=C(CCc1nc(-c2ccccc2Cl)no1)Nc1ccc(Cl)c(Cl)c1 | i | i
9 | COc1cc2c(cc1OC)CN(C(=O)[C@@H]1[C@H]3C(=O)O[C@H](c4ccccc4)[C@H](c4ccccc4)N3[C@H](c3ccc(O)cc3)[C@@]13C(=O)Nc1ccc(C#CC4(O)CCCCCC4)cc13)CC2 | i | i
10 | C[C@@H]1CN([C@@H](C)CO)C(=O)Cc2cc(NC(=O)Nc3ccc(C(F)(F)F)cc3)ccc2O[C@@H]1CN(C)S(=O)(=O)c1cccs1 | . | i
11 | C=C(CO)C(=O)O[C@H]1C[C@@]23O[C@@H]2CC/C(=C/[C@H]2OC(=O)C(=C)[C@H]12)CO[C@@H]3O | . | i
12 | C[C@@H]1CN([C@H](C)CO)C(=O)c2cccc(NS(C)(=O)=O)c2O[C@H]1CN(C)C(=O)Nc1cccc2ccccc12 | i | i

item | STAT3 SMM | Myc binder
1 | i | i
2 | i | i
3 | i | i
4 | i | i
5 | i | i
6 | i | i
7 | i | i
8 | i | i
9 | i | i
10 | i | i
11 | i | i
12 | i | i

(next part)
item | SMILES | ID4 SMM | p53 mut binder
13 | CC(C)NC(=O)Nc1ccc2c(c1)C(=O)N([C@@H](C)CO)C[C@H](C)[C@H](CN(C)Cc1ccc(C(=O)O)cc1)OCCCC[C@@H](C)O2 | i | i
14 | COc1ccc(S(=O)(=O)N(C)C[C@@H]2Oc3c(NC(=O)C4CCOCC4)cccc3C(=O)N([C@H](C)CO)C[C@@H]2C)cc1 | i | i
15 | CN(C)c1ccc(/C=C2\C(=O)Nc3ccccc32)c2ccccc12 | i | i
16 | CCN(CC)CCNC(=O)COc1ccc(OC)cc1 | i | i
17 | Cc1noc(C)c1S(=O)(=O)Nc1ccc2c(c1)C(=O)N([C@@H](C)CO)C[C@H](C)[C@@H](CN(C)C(=O)Nc1ccc3c(c1)OCO3)O2 | i | i
18 | Cc1noc(C)c1NC(=O)N(C)C[C@@H]1Oc2ccc(NC(=O)C3CC3)cc2CC(=O)N([C@H](C)CO)C[C@H]1C | i | i
19 | CNC[C@@H]1OCCCC[C@H](C)Oc2ccc(NC(=O)c3ccncc3)cc2C(=O)N([C@H](C)CO)C[C@H]1C | i | i
20 | Cn1c(SCC(N)=O)nnc1-c1ccc(C(C)(C)C)cc1 | i | i
21 | Cc1noc(C)c1S(=O)(=O)N(C)C[C@H]1Oc2ccc(NC(=O)NC(C)C)cc2CC(=O)N([C@H](C)CO)C[C@H]1C | i | i
22 | NC(=O)CN(Cc1ccc(F)cc1)S(=O)(=O)c1ccc(Cl)cc1 | i | i
23 | C[C@H]1CCCCO[C@@H](CN(C)Cc2ccc(C(F)(F)F)cc2)[C@@H](C)CN([C@@H](C)CO)C(=O)c2cc(NC(=O)CCC(F)(F)F)ccc2O1 | . | i
24 | O=C(O)[C@H]1O[C@@H](Oc2c(-c3ccc(O)cc3)oc3cc(O)cc(O)c3c2=O)[C@H](O)[C@@H](O)[C@@H]1O | . | i

item | STAT3 SMM | Myc binder
13 | i | i
14 | i | i
15 | i | i
16 | i | i
17 | i | i
18 | i | i
19 | i | i
20 | i | i
21 | i | i
22 | i | i
23 | i | i
24 | i | i

Continuation.
item | SMILES | ID4 SMM | p53 mut binder
25 | CC(C)[C@H](CO)Nc1nc(Nc2ccc(C(=O)O)c(Cl)c2)c2ncn(C(C)C)c2n1 | i | i
26 | CCC(=O)OCC(=O)C1(OC(=O)CC)[C@H](C)C[C@H]2[C@H]3[C@H]([C@@H](O)C[C@@]21C)[C@@]1(C)C=CC(=O)C=C1C[C@H]3Cl (stereo partly drawn) | . | i
27 | COc1ccc(S(=O)(=O)Nc2ccc(O)c(Sc3ncn[nH]3)c2)cc1 | i | i
28 | CCn1c(SCC(=O)Nc2cccc(OC)c2)nnc1-c1ccncc1 | i | i
29 | Cc1noc(C)c1S(=O)(=O)N(C)C[C@H]1Oc2ccc(N(C)C)cc2CC(=O)N([C@@H](C)CO)C[C@@H]1C | i | i
30 | CC(=O)Nc1ccccc1SCC(=O)Nc1ccc(C)cc1 | i | i
31 | C[C@@H]1CN([C@H](C)CO)C(=O)c2cc(NS(=O)(=O)c3cccs3)ccc2O[C@@H]1CN(C)CC1CC1 | i | i
32 | C[C@@H]1CN([C@@H](C)CO)C(=O)CCCn2nncc2CO[C@H]1CN(C)Cc1ccc(C(F)(F)F)cc1 | i | i
33 | COc1ccc(S(=O)(=O)Nc2cccc3c2O[C@H](CN(C)Cc2ccc4c(c2)OCO4)[C@@H](C)CN([C@H](C)CO)C3=O)cc1 | i | i
34 | Cc1noc(C)c1NC(=O)N(C)C[C@@H]1OCCCC[C@@H](C)Oc2ccc(NS(=O)(=O)c3cccs3)cc2C(=O)N([C@H](C)CO)C[C@@H]1C | i | i
35 | CNC[C@@H]1Oc2c(NC(=O)Nc3ccccc3)cccc2C(=O)N([C@H](C)CO)C[C@@H]1C | i | i
36 | C[C@@H]1CN([C@H](C)CO)C(=O)c2cccc(NS(=O)(=O)c3cn(C)cn3)c2O[C@H]1CN(C)C(=O)NC1CCCCC1 | i | i

item | STAT3 SMM | Myc binder
25 | i | i
26 | i | i
27 | i | i
28 | i | i
29 | i | i
30 | i | i
31 | i | i
32 | i | i
33 | i | i
34 | i | i
35 | i | i
36 | i | i

More entries.
item | SMILES | ID4 SMM | p53 mut binder
37 | C[C@@H]1CN([C@@H](C)CO)C(=O)Cc2cc(NC(=O)Nc3ccc(F)cc3)ccc2O[C@@H]1CN(C)C | i | i
38 | Cc1noc(C)c1S(=O)(=O)N(C)C[C@H]1Oc2c(cccc2N(C)C)C(=O)N([C@H](C)CO)C[C@@H]1C | i | i
39 | COc1ccc(CN(C)C[C@H]2Oc3c(NC(=O)Nc4c(C)noc4C)cccc3C(=O)N([C@@H](C)CO)C[C@@H]2C)cc1 | i | i
40 | Cc1noc(C)c1S(=O)(=O)Nc1ccc2c(c1)C(=O)N([C@H](C)CO)C[C@@H](C)[C@@H](CN(C)C(=O)c1ccncc1)OCCCC[C@H](C)O2 | i | i
41 | O=C(NCCNC(=O)c1cc2ccccc2cc1O)c1cc2ccccc2cc1O | i | i
42 | Cc1noc(C)c1NC(=O)Nc1cccc2c1O[C@H](CN(C)Cc1ccc3c(c1)OCO3)[C@@H](C)CN([C@@H](C)CO)C2=O | i | i
43 | C[C@H]1CN([C@@H](C)CO)C(=O)Cc2cc(NC(=O)NC3CCCCC3)ccc2O[C@H]1CN(C)Cc1ccc(C(=O)O)cc1 | i | i
44 | CC[C@@H]1Cc2cc(O)ccc2C2=C1c1ccc(O)cc1C[C@H]2CC | . | i
45 | N#Cc1c(SCC(=O)Nc2ccccc2)ncc2cc3ccccc3nc12 | i | i
46 | C[C@H]1CN([C@@H](C)CO)C(=O)c2cccc(NS(=O)(=O)c3ccccc3)c2O[C@@H]1CN(C)C(=O)NC1CCCCC1 | i | i
47 | COc1ccc(NC(=O)CSc2nc3c(c(-c4cccs4)c2C#N)CN(C)CC3)cc1OC | i | i
48 | O=C(NCCCN1CCCC1=O)c1cc(-c2ccccn2)nc2ccc(Br)cc12 | i | i

item | STAT3 SMM | Myc binder
37 | i | i
38 | i | i
39 | i | i
40 | i | i
41 | i | i
42 | i | i
43 | i | i
44 | i | i
45 | i | i
46 | i | i
47 | i | i
48 | i | i

Further records.
item | SMILES | ID4 SMM | p53 mut binder
49 | C[C@@H]1CN([C@H](C)CO)C(=O)c2cc(NC(=O)C3CC3)ccc2O[C@@H]1CN(C)Cc1ccc(C(F)(F)F)cc1 | i | i
50 | COc1cc(Cc2nccc3cc(OC)c(OC)cc23)c(NC(=O)c2cccs2)cc1OC | i | i
51 | Cc1noc(C)c1S(=O)(=O)Nc1ccc2c(c1)C(=O)N([C@@H](C)CO)C[C@@H](C)[C@H](CN(C)C(=O)c1ccncc1)OCCCC[C@@H](C)O2 | i | i
52 | CC(=O)n1cc([C@@H]2C=C(C(=O)Nc3ccccc3)O[C@H](OCCCCO)C2)c2ccccc21 | i | i
53 | COc1cc(O)c2c(c1C)C(C)C(O)(CO)OC2=O (stereo not drawn) | i | i
54 | C=CCN1C(=O)[C@@]2(O[C@@H](CCn3cc([C@H](O)c4ccccc4)nn3)[C@H]([Si](C)(C)c3ccc(OC)cc3)[C@H]2C)c2cc(N3CCOC3=O)ccc21 | . | i
55 | C[C@@H]1CN([C@H](C)CO)C(=O)Cc2cc(NS(C)(=O)=O)ccc2O[C@@H]1CN(C)Cc1ccc(-c2ccccc2)cc1 | i | i
56 | CC(NS(=O)(=O)c1ccc(Br)cc1)C(=O)Nc1ccccc1 (stereo not drawn) | i | i
57 | COc1c(OC)c(O)c2c(=O)cc(-c3ccc(O)cc3)oc2c1OC | i | i
58 | COc1ccccc1CN(C)C[C@@H]1OCc2cnnn2CCCC(=O)N([C@@H](C)CO)C[C@H]1C | i | i
59 | C[C@@H]1CN([C@H](C)CO)C(=O)Cc2cc(NC(=O)Cc3cn(C)c4ccccc34)ccc2O[C@@H]1CN(C)CC1CCCCC1 | . | i
60 | Cc1noc(C)c1NC(=O)Nc1ccc2c(c1)C(=O)N([C@@H](C)CO)C[C@@H](C)[C@@H](CN(C)Cc1ccncc1)OCCCC[C@H](C)O2 | . | i

item | STAT3 SMM | Myc binder
49 | i | i
50 | i | i
51 | i | i
52 | i | i
53 | i | i
54 | i | i
55 | i | i
56 | i | i
57 | i | i
58 | i | i
59 | i | i
60 | i | i

Remaining list, next part.
item | SMILES | ID4 SMM | p53 mut binder
61 | C[C@H]1CN([C@@H](C)CO)C(=O)c2cccc(N(C)C)c2O[C@@H]1CN(C)Cc1ccc(C(F)(F)F)cc1 | i | i
62 | COc1ccc(NC(=O)Nc2ccc3c(c2)C(=O)N([C@H](C)CO)C[C@H](C)[C@H](CN(C)S(=O)(=O)c2ccc(Cl)cc2)O3)cc1 | . | i
63 | COc1ccc(N(C(=O)c2ccncc2)S(=O)(=O)c2ccc3c4c(cccc24)C(=O)N3C)cc1 | i | i
64 | COc1ccc(NC(=O)Nc2ccc3c(c2)CC(=O)N([C@@H](C)CO)C[C@H](C)[C@H](CN(C)C)O3)cc1 | i | i
65 | Cc1ccc(C)c(S(=O)(=O)NCc2cccnc2)c1 | i | i
66 | C[C@@H]1CCCCO[C@H](CN(C)C(=O)Cc2ccccc2)[C@@H](C)CN([C@@H](C)CO)C(=O)c2cc(NS(=O)(=O)c3ccc(Cl)cc3)ccc2O1 | . | i
67 | C[C@H](CO)N1C[C@H](C)[C@H](CN(C)C(=O)Nc2ccc(F)cc2)Oc2ccc(NC(=O)NC3CCCCC3)cc2C1=O | i | i
68 | Cc1ccc(C2=NNC(=O)C(c3cn(CCC#N)c4ccccc34)C2)cc1 (stereo not drawn) | i | i
69 | C[C@H]1CN([C@@H](C)CO)C(=O)c2cc(NC(=O)Nc3cccc4ccccc34)ccc2O[C@@H]1CN(C)C(=O)NC1CCCCC1 | i | i
70 | Cc1nc2c(OCc3ccccc3)cccn2c1CC#N | i | i
71 | C[C@H](CO)N1C[C@H](C)[C@@H](CN(C)C(=O)CCCN(C)C)OCCCC[C@H](C)Oc2ccc(NS(=O)(=O)c3ccccc3)cc2C1=O | i | i
72 | Cc1noc(C)c1S(=O)(=O)Nc1ccc2c(c1)C(=O)N([C@@H](C)CO)C[C@H](C)[C@@H](CN(C)C)O2 | i | i
73 | C[C@H](CO)N1C[C@H](C)[C@H](CN(C)S(=O)(=O)c2cccs2)Oc2ncc(C#Cc3ccc(C(F)(F)F)cc3)cc2C1=O | i | i
74 | C[C@@H]1CN([C@H](C)CO)C(=O)c2cccc(N(C)C)c2O[C@@H]1CN(C)C(=O)NC1CCCCC1 | i | i
75 | C[C@@H]1CCCCO[C@H](CN(C)C(=O)CCC(F)(F)F)[C@H](C)CN([C@@H](C)CO)C(=O)c2cc(N(C)C)ccc2O1 | i | i

item | STAT3 SMM | Myc binder
61 | i | i
62 | i | i
63 | i | i
64 | i | i
65 | i | i
66 | i | i
67 | i | i
68 | i | i
69 | i | i
70 | i | i
71 | i | i
72 | i | i
73 | i | i
74 | i | i
75 | i | i
